T cruzi inh – blocks replication of Trypanosoma cruzi. T. cruzi beta-gal in NIH3T3, luminescence, 90 h. inhibition, % (concentration not given with the values). hit rate 1.4% among 300,000;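 active means mean inhibition across valid replicates above about 55%, limit read from the data; inconclusive means mean below that limit but half or more replicates reach it; inactive means mean below it, under half of replicates reach it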;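 further: signal also drops with host cell toxicity which is not excluded here; 0% = plate median of DMSO wells and 100% = zero luminescence signal; higher percent means less beta-gal luminescence so fewer parasites; stock transfer was 50 nL into about 50 µL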
ALR inh – inhibitors of human sulfhydryl oxidase ALR. P55789. purified ALR, DTT oxidation, H2O2 HRP-luminol luminescence. inhibition, % (test concentration not listed). hit rate 3.8% among 290,000. AID 485317;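 active means mean and each replicate at 75% or more; inconclusive means only one of the two met; inactive means neither met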;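 further: stock transfer was 7.5 nL into about 7.5 µL; 0% = neutral wells and 100% = wells with inactivated enzyme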
Target sequence (P55789 whole entry, looked up): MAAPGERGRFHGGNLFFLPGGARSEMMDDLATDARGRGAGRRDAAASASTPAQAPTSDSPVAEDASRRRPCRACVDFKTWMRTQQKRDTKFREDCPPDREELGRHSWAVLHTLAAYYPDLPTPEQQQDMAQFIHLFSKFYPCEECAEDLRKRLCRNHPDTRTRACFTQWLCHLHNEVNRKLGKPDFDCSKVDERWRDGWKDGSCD
B2AR ag – human beta-2 adrenergic receptor agonism by FAP. Am2.2-beta2AR cells, FAP receptor internalization, flow cytometry; reference of the scale not given here. response, % (no concentration beside the values). hit rate 0.43% among 340,000. AID 504454;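 active means response above a set limit, near 3 SD of response in nonfluorescent compounds, cut at about 42% in these data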;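 further: stock transfer was 100 nL into about 11 µL; a reference agonist was the positive control; negative values mostly stem from fluorescent compounds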
Target sequence (P07550 whole entry, looked up): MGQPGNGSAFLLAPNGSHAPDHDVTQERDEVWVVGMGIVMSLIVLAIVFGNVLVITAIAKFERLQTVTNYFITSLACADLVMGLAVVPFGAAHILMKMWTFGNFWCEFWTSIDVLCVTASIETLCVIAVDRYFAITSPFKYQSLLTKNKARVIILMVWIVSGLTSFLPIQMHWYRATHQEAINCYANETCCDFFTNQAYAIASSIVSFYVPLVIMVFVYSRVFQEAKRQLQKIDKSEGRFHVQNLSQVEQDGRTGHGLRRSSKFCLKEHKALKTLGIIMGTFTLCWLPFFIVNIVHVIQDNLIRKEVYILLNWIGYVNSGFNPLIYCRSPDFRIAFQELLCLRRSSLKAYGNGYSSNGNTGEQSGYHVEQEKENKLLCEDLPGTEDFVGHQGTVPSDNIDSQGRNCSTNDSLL
Calb FLC – affects C. albicans growth with fluconazole; C. albicans CaCi-2 (fluconazole-resistant clinical isolate) + fluconazole, Alamar Blue growth, 48 h; growth inhibition, % (test concentration not listed); hit rate 0.57% among 300,000; AID 1979;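 active means most replicates above 75%; inconclusive means exactly half above 75%; inactive means most below 75%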;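 further: all wells also contain fluconazole at 8 µg/ml as a sub-toxic cotreatment; 0% = median of DMSO wells and 100% = median of geldanamycin control wells; wells of about 8 µL received 7.5 nL stock; the first replicate is given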
rRNA inh HTS – inhibitors of bacterial rRNA selective over humanized ribosomes; hit rate 1.6% among 350,000; AID 720706; E. coli WT GFP vs humanized-ribosome RFP mutants, fluorescence, 24 h; stronger effect = lower value; DMSO median 0, no signal -100; GFP signal change (wild-type ribosome), % (concentration not given with the values);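 active means significant combined selectivity score with lowered wild-type GFP, culture density cut under 30%, mutant RFP and density less affected; inactive means any of these conditions unmet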; further: one replicate is shown; some compounds called inactive have numbers as strong as hits
Beta cell apopt – blocks beta cell apoptosis. hit rate 0.8% among 300,000. AID 435005. INS-1E cytokine-induced death, ATP luminescence, 48 h; percent of positive-control rescue, neutral wells zero. protection from apoptosis, % (concentration not given with the values);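 active means all replicates at 75% or more, or half of them and the mean; inconclusive means half reach 75% but not the mean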;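 further: 0% = cytokine-treated negative control wells and 100% = positive control rescue; higher means more ATP so stronger rescue from cytokine killing; wells of about 40 µL received 100 nL stock; the first replicate is given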
LANA-H2B inh – blocks KSHV LANA binding to histone H2A/H2B; inhibition, % (test concentration not listed); cell-free LANA-H2A/H2B peptide, fluorescence polarization; Q9QR71; hit rate 0.6% among 320,000; in the data active means inhibition mostly above about 10%, no sharp cut-off; inactive means mostly below about 6.7%;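 further: stock transfer was 7.5 nL into about 10 µL; 0% = median of vehicle wells and 100% = median of positive control wells; one replicate is shown; the record names a cut of 25% in any replicate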
A1 inh – inhibitors of the anti-apoptotic protein A1, read as caspase activation; MEF A1-2A-BIM cells, Caspase-Glo 3/7 luminescence, 3 h; percent of clofoctol response, vehicle zero; caspase activation, % (no concentration beside the values); hit rate 0.066% among 330,000; AID 2462;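 active means over half of replicate activation scores above 10%, or exactly half above 10 with the replicate mean above 10; inconclusive means replicate mean below 10 yet half the replicates above 10; inactive means over half of replicates below 10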;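 further: wells of about 30 µL received 50 nL stock; many hits fall short of the cut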
rRNA inh HTS OD600 – further read-out of rRNA inh HTS, marked with its call; OD600 change, %; measured here: OD600 growth;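 optical density of the mix in the first replicate; 0 = DMSO median and -100 = no signal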
rRNA inh HTS RFP – recorded beside rRNA inh HTS, whose call it bears; RFP signal change, %; measured here: RFP humanized mutant strains;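 first replicate; 0 = DMSO median and -100 = no signal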
Numbers without * were called inactive; u = inconclusive; x = not tested or not shown; + = active, no number. These rows are one share of the data (hit frequency here may not be typical).

SMILES	T cruzi inh	ALR inh	B2AR ag	Calb FLC	rRNA inh HTS	rRNA inh HTS OD600	rRNA inh HTS RFP	Beta cell apopt	LANA-H2B inh	A1 inh
Nc1ccc2oc(-c3ccccn3)nc2c1	3.0	u	-10.2	1.8	x	x	x	6.2	-2.7	-3.1
Cc1ccc(NC(=O)CNc2cc(S(=O)(=O)N3CCOCC3)ccc2N2CCOCC2)cc1S(=O)(=O)N(C)C	x	-6.4	1.7	x	-5.5	4.8	3.3	-7.3	4.2	-0.1
Cc1noc(C)c1C(=O)N1CCc2ccccc2C1	-20.6	-2.6	-1.5	-10.8	x	x	x	0.1	-0.6	-0.5
O=C(CCS(=O)(=O)Cc1ccccc1F)N1CCc2ccccc2C1	16.0	9.6	-3.9	2.7	x	x	x	0.8	1.9	0.2
CCCCn1nc(C(=O)OCC(=O)Nc2sccc2C(N)=O)c2ccccc2c1=O	-21.2	73.4	-5.6	4.0	10.2	4.7	-5.2	1.5	1.1	-0.5
Cc1cc(-n2c(C)cc(C(=O)CSc3nnnn3-c3ccccc3)c2C)no1	16.7	-7.3	1.4	15.6	-15.5	-9.2	-4.8	1.4	-1.4	0.0
COc1ccc(CCNC(=O)CSc2nnc(-c3cccc(C)c3)o2)cc1OC	0.3	4.0	-1.0	u	x	x	x	-2.7	2.3	1.8
CCOC(=O)c1c(C)[nH]c(C)c1C(=O)CSc1nc2ccccc2c(=O)n1-c1ccc(F)cc1	44.0	-2.2	1.5	46.7	-12.1	-29.2	-2.2	-10.1	2.3	-0.2
COc1ccc(C(=O)NCc2csc(C(C)C)n2)cc1OC1CCN(C(C)=O)CC1	-6.8	-5.7	6.5	-1.2	3.2	-6.3	1.4	-3.9	2.4	1.3
CC(C)[C@@H](C(=O)NC1CCCC1)N1C(=O)N2CCc3c([nH]c4ccccc34)[C@@]2(C)C1=O	14.5	-17.8	-3.4	-9.4	x	x	x	x	-1.5	0.3
COc1ccccc1NC(=O)c1ccc2c(c1)OCO2	-11.2	-24.2	6.7	10.5	17.2	4.0	0.0	-3.7	-4.8	-5.1
CCC(C)(C)NC(=O)C(c1ccc(C)cc1)N(CC1CCCO1)C(=O)CNC(=O)c1cccs1 (centres undefined)	-11.5	-6.8	-32.4	13.2	x	x	x	-8.4	-3.3	2.3
NNC(=O)c1cc2cc3ccccc3nc2s1	-3.9	u	-5.5	-30.7	-15.4	-7.8	-2.5	11.3	-1.0	-1.4
COc1ccc(C(CNC(=O)c2cccc(NC(=O)c3cccs3)c2)N2CCCC2)cc1 (centres undefined)	x	-5.4	0.8	x	1.1	-1.2	0.0	-4.3	-16.1	-1.4
COc1ccc(CC(=O)OCC(=O)NCc2ccc(Cl)cc2)cc1	-6.1	-0.4	-0.8	-5.1	2.8	-2.9	-0.6	5.5	5.2	-0.2
CCOC(=O)c1c(CN2CCCCC2)n(C)c2cc(Br)c(O)cc12	-17.6	17.0	5.6	-3.4	x	x	x	48.1	0.9	0.2
Cc1c(C(=O)NC(=S)Nc2ccc(N3CCOCC3)cc2)cccc1[N+](=O)[O-]	-3.6	-0.1	8.2	1.7	10.7	21.0	2.3	3.0	-0.2	0.1
O=C(c1cc2cc([N+](=O)[O-])ccc2oc1=O)N1CCN(C2CCCCC2)CC1	-4.2	0.2	0.9	-0.4	30.6	9.0	-0.1	-3.3	3.8	0.2
Cc1cccc(CN2CCNC2=O)c1	-8.7	0.8	-0.2	0.0	x	x	x	-6.3	0.5	0.7
COc1ccc(N2CCN(C(c3ccccc3)c3nnnn3Cc3ccc(F)cc3)CC2)cc1 (centres undefined)	7.6	24.5	-4.0	15.7	x	x	x	3.8	-6.2	0.6
Cc1c(N)cccc1-n1cnnn1	-11.3	-13.4	0.9	10.1	13.4	4.4	-0.8	-5.9	2.2	0.9
N#C/C(=C\c1cccnc1)c1ccc(Br)cc1	10.9	7.4	1.6	-4.9	-7.6	2.9	3.2	2.3	-2.6	0.0
O=C(NCCN1CCN(C(=O)c2cccc([N+](=O)[O-])c2)CC1)C(=O)NCc1ccc(Cl)cc1	18.9	-2.7	-6.4	x	3.2	17.7	-1.1	-6.0	-3.7	-0.1
Fc1ccccc1OCC1CCCN(Cc2nc(CC3CC3)no2)C1 (centres undefined)	1.6	2.9	-3.0	-5.0	-28.8	-41.5	-9.4	0.0	-1.9	1.0
NS(=O)(=O)c1ccc(CCNC(=O)COC(=O)CCSc2ccc(Cl)cc2)cc1	-24.2	-6.8	3.2	-4.2	x	x	x	-14.1	-2.4	0.4
Cc1ccc(C)c(N2CCN(CC(=O)Nc3ccc([N+](=O)[O-])cc3C(=O)Nc3ccccc3F)CC2)c1	70.6*	1.5	-1.9	8.2	x	x	x	19.2	-4.8	-1.0
CCOC(=O)C1CCCN(C(=O)C(C)Oc2ccc(Cl)cc2Cl)C1 (centres undefined)	-12.7	-23.8	11.5	x	-31.2	-31.5	-6.9	0.7	-1.6	0.3
O=C(CSc1nnc(-c2ccc(O)cc2)o1)NNC(=O)c1ccncc1	-4.7	-7.2	12.1	20.2	8.8	12.9	-2.3	-3.5	-1.8	-0.1
COC(=O)c1ccc(NC(=O)CCS(=O)(=O)c2ccc(C)cc2)cc1	1.1	x	1.5	-10.5	12.6	9.9	1.6	x	3.2	0.0
Cc1ccc(C)c(NC(=S)N(C2CCCCC2)C(C)c2cccnc2)c1 (centres undefined)	-3.1	-5.5	6.1	6.8	12.6	8.1	-4.5	-1.6	0.9	0.6

3 compounds out of the list above, arranged by their value in rRNA inh HTS OD600, largest number first:
SMILES | rRNA inh HTS OD600
Cc1ccc(C)c(NC(=S)N(C2CCCCC2)C(C)c2cccnc2)c1 (centres undefined) | 8.1
Cc1c(N)cccc1-n1cnnn1 | 4.4
Fc1ccccc1OCC1CCCN(Cc2nc(CC3CC3)no2)C1 (centres undefined) | -41.5

Continued:
SMILES	T cruzi inh	ALR inh	B2AR ag	Calb FLC	rRNA inh HTS	rRNA inh HTS OD600	rRNA inh HTS RFP	Beta cell apopt	LANA-H2B inh	A1 inh
COc1cccc(-c2nnc(NC(=O)c3ccco3)s2)c1	-12.7	-3.3	-7.0	30.1	0.8	3.2	0.3	-12.1	-2.0	1.8
Cc1cc(C)cc(N2CC(O)=C(c3nc4ccccc4c(=O)[nH]3)C2=N)c1	-11.8	-1.5	2.7	-14.4	1.3	4.2	0.8	3.0	1.0	0.2
O=C(CNC(=O)c1ccc(Cl)c([N+](=O)[O-])c1)OCN1C(=O)c2ccccc2C1=O	-14.2	3.8	-1.6	3.4	2.0	-1.4	-3.4	4.2	2.1	-0.3
Cc1onc(-c2ccccc2)c1C(=O)Nc1nc(-c2ccccc2)cs1	18.9	x	-3.4	-1.2	x	x	x	-0.8	1.5	-0.1
CCCCNC(=O)C(=O)Nc1cc2c3c(c1)CCC(=O)N3CCC2	-13.6	0.8	3.1	9.9	-0.8	-1.5	-3.2	0.4	-5.0	-0.5
C=CCc1ccc(OCc2ccc(C(=O)O)o2)c(OC)c1	-15.2	-10.4	-1.9	7.5	-3.0	-1.8	-1.3	-6.0	3.3	-4.4
C=CCOC(=O)C1=C[C@@H](c2ccc(Br)cc2)C[C@@H](OCCCCO)O1	-3.8	11.8	-4.8	16.4	-9.9	-13.7	-3.1	-5.0	-2.1	2.5
CC(=O)Nc1ccc(S(=O)(=O)NCC(=O)OCC(=O)Nc2sccc2C(N)=O)cc1	x	15.2	0.9	x	x	x	x	1.2	-11.9	-0.7
CC1CCN(c2ccc(-c3ccc(NC(=O)C(F)(F)F)cc3)nn2)CC1	3.2	-2.8	6.0	-5.9	x	x	x	1.2	7.0	-11.6
COc1ccc(NC(=O)CSCC(=O)N(C)CC(=O)Nc2c(C)cccc2C)cc1	x	-0.7	0.6	x	8.7	3.6	1.3	-1.7	3.0	0.1
CCC1Nc2ncnc(N3CCOCC3)c2N(Cc2ccc(OC)cc2)C1=O (centres undefined)	x	-5.9	-1.3	x	4.3	10.3	-3.3	-2.1	-1.4	1.0
Cc1ccc2nsnc2c1NC(=O)c1sc2ccccc2c1Cl	-20.9	-10.5	16.2	-7.7	x	x	x	20.1	-2.3	0.7
O=C(c1cccn(Cc2ccc(Cl)c(Cl)c2)c1=O)N1CCOCC1	7.0	-15.8	-0.2	-4.0	x	x	x	-3.5	1.2	0.7
O=C(CCCN1C(=O)/C(=C\c2cccc(Br)c2)SC1=S)Nc1cccnc1	16.3	-2.8	7.0	46.5	-14.1	-20.6	-1.0	-5.7	18.6*	-0.1
CC1=CC(C)C2(COC(=O)Nc3ccccc3)COC(C)C1C2C (centres undefined)	3.5	-2.8	13.1	-12.2	-30.9	-40.5	-5.4	x	-2.6	0.2
Cn1cccc1/C=C1\SC(=S)N(NC(=O)c2ccccc2)C1=O	x	-5.8	3.4	x	-7.2	-4.2	-8.6	1.6	+	-0.8
N#CC(C#N)=C1C(=O)N(CCN2CCOCC2)c2ccccc21	-14.2	-3.3	2.8	5.7	-2.5	1.5	-0.6	-12.4	-2.7	0.7
CCNC(=O)COC(=O)c1cccc(Br)c1	-7.6	-8.3	2.5	3.8	4.0	2.9	0.7	2.7	-4.7	1.6
COc1ccc(CCNc2cc(C)nc3c(-c4ccc(Cl)cc4)cnn23)cc1OC	8.7	-5.2	-2.1	28.9	x	x	x	-1.2	1.3	0.4
O=C(NCCC1=CCCCC1)N[C@@H](Cc1ccccc1)C(=O)O	-4.7	-3.9	-7.0	-5.5	x	x	x	-7.7	0.5	0.5
CCOC(=O)C1CCCN(C(=O)c2ccc(Cl)cc2)C1 (centres undefined)	-7.8	1.2	8.5	-2.2	13.1	1.5	0.3	-1.7	-7.8	-0.2
CCc1onc(C)c1C(=O)Nc1ccc(N2CCOCC2)cc1	x	x	-5.0	x	23.6	13.2	2.2	-1.4	2.2	1.0
COC(C/C=C/C(=O)[C@H](C)OCc1ccccc1)OC	-7.0	87.4*	14.3	-11.8	x	x	x	-9.2	-3.7	3.0
CCN(CC)S(=O)(=O)c1ccc(S(=O)(=O)NCC2CCCO2)cc1 (centres undefined)	-16.2	1.1	24.9	-10.6	11.0	8.5	-0.1	x	2.6	1.5
CCOC(=O)CCCCCC(=O)Nc1ccc2c(c1)CC(=O)N([C@@H](C)CO)C[C@@H](C)[C@@H](CN(C)C(=O)Nc1ccc(C(F)(F)F)cc1)O2	x	-2.9	25.6	x	-10.8	-7.5	0.0	1.5	-2.4	u
Cc1nc(-c2cccc(Cl)c2)n[nH]1	-13.7	-9.6	-4.1	-3.7	x	x	x	-1.7	-5.0	0.5
COc1cc(S(=O)(=O)Nc2ccc(C)cc2)ccc1N=Cc1c(C)c(C#N)c(=O)n(C)c1O	7.6	-2.4	9.4	0.2	75.3	10.8	10.4	41.0	10.1	2.3
CCOC(=O)C1(CCOc2ccccc2)CCN(Cc2cccc3c2OCO3)CC1	65.2*	0.3	10.9	-16.5	-44.0	-69.4	-6.8	0.3	1.5	-0.2
CC(C)COc1ccc(-c2cc(C(=O)NN)[nH]n2)cc1	-12.5	x	15.3	14.7	-2.8	0.3	1.4	1.3	-0.6	-0.6

From PubChem BioAssay
